Ecoli rRNA inh: inhibitors of bacterial rRNA selective over humanized ribosomes | E. coli WT GFP vs humanized-ribosome RFP mutants, fluorescence, 24 h; hits give low values; DMSO median 0, no signal -100 | GFP signal change (wild-type ribosome), % (test concentration not listed) | 1.6% of 350,000 active | AID 720706;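 active means significant combined selectivity score with lowered wild-type GFP, culture density cut under 30%, mutant RFP and density less affected; inactive means any of these conditions unmet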; further: one replicate is shown; some compounds called inactive have numbers as strong as hits
Ecoli rRNA inh OD600: further read-out of Ecoli rRNA inh, marked with its call; OD600 change, %; measured here: OD600 growth;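 optical density of the mix in the first replicate; 0 = DMSO median and -100 = no signal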
Ecoli rRNA inh RFP: also measured in Ecoli rRNA inh; calls as there; RFP signal change, %; measured here: RFP humanized mutant strains;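 first replicate; 0 = DMSO median and -100 = no signal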
The depositor's hits bear a star; & = joins results of further samples.

SMILES	Ecoli rRNA inh	Ecoli rRNA inh OD600	Ecoli rRNA inh RFP
C[C@H](CO)N1C[C@H](C)[C@H](CN(C)C(=O)Nc2ccc(F)cc2)Oc2ccc(NC(=O)CCN3CCOCC3)cc2C1=O	3	1	0.1
C[C@@H]1CCCCO[C@@H](CN(C)Cc2ccncc2)[C@H](C)CN([C@@H](C)CO)C(=O)c2cc(NS(=O)(=O)c3ccccc3)ccc2O1	1	8	-1.3
Cc1ccc(S(=O)(=O)NC(=O)C2(C)CCN2C(=O)c2ccccc2CCc2ccccc2)cc1 (stereo unspecified)	-5	-5	-2.3
COc1ccccc1-c1cn(CC[C@@H]2CC[C@@H](NC(=O)C3CC3)[C@H](CO)O2)nn1	0	-1	-0.1
C[C@H]1CN([C@@H](C)CO)C(=O)c2cccc(NC(=O)c3nc4ccccc4s3)c2O[C@@H]1CN(C)C(=O)Nc1ccc(F)cc1	2	4	0.0
Cc1cc(C(=O)Nc2cccc3c2O[C@@H](CN(C)C(=O)Nc2ccccc2)[C@H](C)CN([C@H](C)CO)C3=O)n(C)n1	3	10	-0.7
C[C@H](CO)N1C[C@H](C)[C@H](CN(C)C(=O)Nc2ccc(N3CCCCC3)cc2)OCc2cnnn2CCCC1=O	11&1	6&-2	23&5.6
COc1ccc(-c2nc3ccc(Br)cn3c2Cc2cccc(Cl)c2)cc1OC	-27*	-16*	-4.5*
C[C@@H]1CN([C@@H](C)CO)C(=O)c2cccc(NC(=O)c3nc4ccccc4s3)c2O[C@H]1CN(C)Cc1ccc(C(=O)O)cc1	-2	0	-2.7
Cc1noc(C)c1NC(=O)Nc1ccc2c(c1)CC(=O)N([C@H](C)CO)C[C@H](C)[C@@H](CN(C)S(=O)(=O)c1ccc(Cl)cc1)O2	-4	0	-2.8
CO[C@H]1CN(C)C(=O)c2cc(NC(=O)c3ccccc3F)ccc2OC[C@@H](C)N(C(=O)c2ccccc2F)C[C@H]1C	-4	-8	-1.7
Cc1ccc(S(=O)(=O)Nc2ccc3c(c2)C(=O)N([C@H](C)CO)C[C@H](C)[C@@H](CN(C)C(=O)NC(C)C)OCCCC[C@@H](C)O3)cc1	2	9	0.2
C[C@H]1CN([C@@H](C)CO)C(=O)Cc2cc(NS(=O)(=O)c3ccc(Cl)cc3)ccc2O[C@@H]1CN(C)Cc1ccc(C(=O)Nc2ccccc2N)cc1	0	4	3.2
C[C@@H]1CN([C@@H](C)CO)C(=O)c2cccc(NS(=O)(=O)c3cn(C)cn3)c2O[C@@H]1CN(C)Cc1ccccc1	2	-2	-0.6
CCN(CC(=O)Nc1ccc2c(c1)OCCO2)C(=O)COc1ccc(C(C)=O)cc1	6	0	0.9
OC[C@@H]1[C@H](c2ccc(-c3ccccc3)cc2)[C@H]2CN(CCC(F)(F)F)CCCCN12	-18	-54	21
CCc1nc2c(OCCn3cccc3)cccn2c1N(C)C(=O)c1ccc(C)cc1	12	13	0.6
C[C@H](CO)N1C[C@H](C)[C@H](CN(C)C(=O)Nc2ccc3c(c2)OCO3)Oc2c(NC(=O)c3ccc(-c4nccs4)cc3)cccc2C1=O	-6	-24	-0.3
C[C@H]1CN([C@@H](C)CO)C(=O)c2cccc(NC(=O)Nc3ccc4c(c3)OCO4)c2O[C@@H]1CN(C)Cc1ccc(Cl)c(Cl)c1	-10	-11	-0.6
O=C(COC(=O)c1cnc(Cl)c(Cl)c1)NC1CCCC1	16	20	5.0
CCCNC(=O)C[C@H]1CC[C@H]2[C@@H](COc3ccc(NC(=O)NCC)cc3C(=O)N2C)O1	-2	6	0.8
C[C@H]1CCCCO[C@H](CN(C)C(=O)Nc2ccc3c(c2)OCO3)[C@@H](C)CN([C@@H](C)CO)C(=O)c2cc(NC(=O)Cc3ccccc3)ccc2O1	-4	-7	3.5
COc1cccc(NC(=O)N2CC(=O)N3[C@H](C2)[C@H](c2ccc(C4=CCCC4)cc2)[C@@H]3CO)c1	-2	-46	27
O=C(C[C@@H]1CC[C@@H]2[C@H](COC[C@H](O)CN2Cc2cccc(F)c2)O1)NCc1cccc(F)c1	-1	6	1.0
Cc1ccc(S(=O)(=O)N(C)C[C@@H]2Oc3ccc(NS(=O)(=O)c4ccccc4)cc3C(=O)N([C@H](C)CO)C[C@@H]2C)cc1	4	2	1.5

10 of these compounds, set out differently.
| smiles | Ecoli rRNA inh | Ecoli rRNA inh OD600 | Ecoli rRNA inh RFP |
| --- | --- | --- | --- |
| OC[C@@H]1[C@H](c2ccc(-c3ccccc3)cc2)[C@H]2CN(CCC(F)(F)F)CCCCN12 | -18 | -54 | 21 |
| CCc1nc2c(OCCn3cccc3)cccn2c1N(C)C(=O)c1ccc(C)cc1 | 12 | 13 | 0.6 |
| C[C@H](CO)N1C[C@H](C)[C@H](CN(C)C(=O)Nc2ccc3c(c2)OCO3)Oc2c(NC(=O)c3ccc(-c4nccs4)cc3)cccc2C1=O | -6 | -24 | -0.3 |
| C[C@H]1CN([C@@H](C)CO)C(=O)c2cccc(NC(=O)Nc3ccc4c(c3)OCO4)c2O[C@@H]1CN(C)Cc1ccc(Cl)c(Cl)c1 | -10 | -11 | -0.6 |
| O=C(COC(=O)c1cnc(Cl)c(Cl)c1)NC1CCCC1 | 16 | 20 | 5.0 |
| CCCNC(=O)C[C@H]1CC[C@H]2[C@@H](COc3ccc(NC(=O)NCC)cc3C(=O)N2C)O1 | -2 | 6 | 0.8 |
| C[C@H]1CCCCO[C@H](CN(C)C(=O)Nc2ccc3c(c2)OCO3)[C@@H](C)CN([C@@H](C)CO)C(=O)c2cc(NC(=O)Cc3ccccc3)ccc2O1 | -4 | -7 | 3.5 |
| COc1cccc(NC(=O)N2CC(=O)N3[C@H](C2)[C@H](c2ccc(C4=CCCC4)cc2)[C@@H]3CO)c1 | -2 | -46 | 27 |
| O=C(C[C@@H]1CC[C@@H]2[C@H](COC[C@H](O)CN2Cc2cccc(F)c2)O1)NCc1cccc(F)c1 | -1 | 6 | 1.0 |
| Cc1ccc(S(=O)(=O)N(C)C[C@@H]2Oc3ccc(NS(=O)(=O)c4ccccc4)cc3C(=O)N([C@H](C)CO)C[C@@H]2C)cc1 | 4 | 2 | 1.5 |

(cont.)
SMILES	Ecoli rRNA inh	Ecoli rRNA inh OD600	Ecoli rRNA inh RFP
CNC[C@H]1Oc2c(NC(=O)NC3CCCCC3)cccc2C(=O)N([C@H](C)CO)C[C@H]1C	0	3	-2.3
CC(C)NC(=O)N[C@@H]1CC[C@@H](CC(=O)NCCN2CCCC2)O[C@@H]1CO	1	1	-0.5
C[C@H](CO)N1C[C@H](C)[C@H](CN(C)Cc2ccccn2)Oc2ncc(-c3ccccc3)cc2C1=O	-1	-3	-1.2
O=C(CC[C@H]1O[C@@H](n2ccc(=O)[nH]c2=O)[C@H](O)[C@@H]1O)N[C@H](Cc1ccccc1)C(=O)NCc1cccs1	24	24	-0.7
COc1ccc(-c2cc(NC(C)=O)c3ncc(-c4cc(OC)c(OC)c(OC)c4)n3c2)cn1	2	7	12
CN(C)CC(=O)N1[C@@H]2c3ccc(-c4ccccc4)c(=O)n3C[C@H]1[C@H](CO)[C@H]2C(=O)N1CCN(C)CC1	3	10	4.2
COc1ccccc1CNC(=O)C[C@@H]1CC[C@@H]2[C@H](COC[C@H](O)CN2C(=O)Nc2ccc(Cl)cc2)O1	-57	-78	-18
Cc1cccc(C)c1NC(=O)C1(C)CN(S(C)(=O)=O)CC(=O)N1CCc1c[nH]c2ccccc12 (stereo unspecified)	-3	-3	4.1
CCCCNC(=O)C1(C)CCC(=O)N1C1CCN(Cc2ccccc2)CC1 (stereo unspecified)	0	8	0.6
COC(=O)c1ccc(CN2C(=O)[C@]3(OCCC=C[C@H]3C)c3ccccc32)cc1	-15	-1	8.4
CO[C@@H]1CN(C)C(=O)c2ccc(NC(=O)NC(C)C)cc2OC[C@H](C)N(Cc2ccccn2)C[C@@H]1C	-1	3	-2.4
C[C@@H]1CN([C@H](C)CO)C(=O)c2cc(NC(=O)CCCCCC(=O)Nc3ccccc3N)ccc2O[C@@H]1CN(C)Cc1ccc(Oc2ccccc2)cc1	-2	-2	15
O=C(c1ccccc1)N1C[C@H]2[C@@H](c3ccccc31)[C@H](CO)N2C(=O)CN1CCOCC1	-1	-5	-2.0
C[C@@H]1CN([C@@H](C)CO)C(=O)Cc2cc(NC(=O)Cc3cn(C)c4ccccc34)ccc2O[C@@H]1CN(C)S(=O)(=O)c1cn(C)cn1	0	-2	0.2
CCC(=O)Nc1ccc2c(c1)C(=O)N(C)[C@H]1CC[C@H](CC(=O)NCCc3ccccc3)O[C@H]1CO2	1	0	-2.4
c1ccc(COCCc2cn(Cc3ccccc3)c3ccccc23)cc1	14	23	4.3
O=C(NC(c1ccccc1)c1ccc2ccccc2n1)C1CCN(Cc2ccc(Oc3ccccc3)cc2)CC1 (stereo unspecified)	-3	-14	24
CC(C)CC#Cc1ccc2c(c1)O[C@@H](CN(C)S(=O)(=O)c1ccc(F)cc1)[C@@H](C)CN([C@@H](C)CO)S2(=O)=O	0	-2	-3.3
C[C@@H]1CCCCO[C@@H](CN(C)Cc2ccncc2)[C@@H](C)CN([C@H](C)CO)C(=O)c2cc(NS(=O)(=O)c3ccc(F)cc3)ccc2O1	-1	-2	0.3
CCCN1C[C@H](C)[C@@H](OC)CN(C)C(=O)c2ccc(NC(=O)c3cccc(F)c3)cc2OC[C@H]1C	-3	-3	-1.2
C#CCN1CC(COc2ccccc2)Oc2cccc(Oc3ccc(OC)cc3)c2S1(=O)=O (stereo unspecified)	-1	4	0.9
Cc1noc(C)c1S(=O)(=O)N(C)C[C@H]1OCCCC[C@@H](C)Oc2ccc(NC(=O)c3ccccc3)cc2C(=O)N([C@H](C)CO)C[C@@H]1C	0	5	1.4
C[C@@H]1C=CCCO[C@]12C(=O)N(Cc1ccccc1C(F)(F)F)c1cccc(Br)c12	4	15	-2.9
COc1ccc2c3c([nH]c2c1)[C@@H](CO)N(Cc1nccs1)CC31CN(Cc2nccs2)C1	2	12	4.8
COc1ccc(-c2ccccc2[C@@H]2[C@@H](CO)N(C(=O)C3CCC3)[C@H]2C#N)cc1	1	2	-2.3
Following part:
SMILES	Ecoli rRNA inh	Ecoli rRNA inh OD600	Ecoli rRNA inh RFP
C[C@@H]1CN([C@H](C)CO)C(=O)c2cc(NC(=O)Cc3ccccc3)ccc2O[C@@H](C)CCCCO[C@@H]1CN(C)CC1CCCCC1	3	3	3.3
NC(=O)c1cccc(Nc2nc(C(N)CCc3ccccc3)cs2)n1 (stereo unspecified)	-2	3	4.4
C[C@H]1CN([C@@H](C)CO)S(=O)(=O)c2ccc(C#CCC3CCCC3)cc2O[C@H]1CN(C)C	5	-14	14
COc1cccc(-c2ccc3c(c2)[C@H]2[C@H](CCN2S(=O)(=O)c2ccc(F)cc2)[C@@H](CO)N3C)c1	3	15	3.0
C[C@H](CO)N1C[C@H](C)[C@@H](CN(C)C(=O)CC2CC2)Oc2cc(C#CC(C)(C)O)ccc2S1(=O)=O	-1	6	-4.4
COc1ccc2c3c(n(C)c2c1)[C@@H](CO)N(C(=O)CN1CCOCC1)CC31CN(Cc2ccncc2)C1	-1	-2	1.9
C[C@@H]1CN([C@H](C)CO)C(=O)c2cc(C#CC3(O)CCCC3)cnc2O[C@H]1CN(C)Cc1cncnc1	2	-3	-3.0
COc1ccc2c(CN3CCCC3)cc(=O)oc2c1	14	9	-0.1
C[C@@H]1C(=O)N[C@H](c2ccccc2)CC=CC[C@H](C)Oc2ccccc2C(=O)N1C (mixture of isomers)	-6	-1	1.1
CO[C@@H]1CN(C)C(=O)c2cc(NS(=O)(=O)c3ccc(C)cc3)ccc2OC[C@@H](C)N(C)C[C@H]1C	3	-5	0.5
C[C@@H]1CCCCO[C@H](CN(C)CC2CCCCC2)[C@H](C)CN([C@@H](C)CO)C(=O)c2cc(NC(=O)Nc3ccc(F)cc3)ccc2O1	-25	-54	29
CN1C[C@@H](O)COC[C@H]2O[C@@H](CC(=O)NC3CCC3)CC[C@@H]21	0	9	-0.4
CN(C)c1ccc2c(c1)[C@@H]1C[C@@H](CC(=O)N3CCCCC3)O[C@H](CO)[C@@H]1O2	0	1	1.7
CO[C@@H]1CN(C)C(=O)c2ccc(NC(=O)Nc3c(C)noc3C)cc2OC[C@H](C)N(C)C[C@H]1C	3	1	-3.8
O=C(C[C@@H]1C=C[C@H](NC(=O)Nc2cc(F)ccc2F)[C@H](CO)O1)NCCCN1CCOCC1	3	-1	-1.7
Cc1noc(C)c1NC(=O)Nc1ccc2c(c1)C(=O)N(C)[C@@H]1CC[C@@H](CC(=O)NCc3ccc(Cl)cc3)O[C@@H]1CO2	-1	-3	-1.6
COCC(=O)Nc1ccc2c(c1)OC[C@@H](C)N(C(=O)Cc1ccccn1)C[C@H](C)[C@H](OC)CN(C)C2=O	0	4	-0.2
C[C@H]1CN([C@@H](C)CO)C(=O)c2cc(NC(=O)Nc3ccc(C(F)(F)F)cc3)ccc2O[C@H]1CN(C)S(=O)(=O)c1cccs1	-4	-3	-0.8
CCCNC(=O)C[C@@H]1CC[C@@H]2[C@H](COc3ccc(NC(=O)c4ccc(OC)cc4)cc3C(=O)N2C)O1	3	4	0.4
CN1C(=O)c2cc(NC(=O)C3CCCCC3)ccc2OC[C@@H]2O[C@@H](CC(=O)NCCc3ccncc3)CC[C@@H]21	-1	-9	-1.2
C[C@@H]1CN([C@H](C)CO)C(=O)c2cccc(NC(=O)C3CCOCC3)c2O[C@@H]1CN(C)Cc1ccncc1	4	12	0.4
C=C1C(=O)[C@]23C[C@H]1CCC2[C@@]1(C)C(C[C@@H]3O)[C@](C)(C(=O)O)C[C@H](O)[C@@H]1O (stereo partly specified)	21	12	1.7
Cc1ccc(S(=O)(=O)Nc2cccc3c2O[C@@H](CN(C)C(=O)Nc2ccc(F)cc2)[C@@H](C)CN([C@@H](C)CO)C3=O)cc1	-2	1	1.9
C[C@H](O)C#Cc1ccc([C@H]2[C@H]3CN(C(=O)c4ccc(F)cc4)CCCCN3[C@H]2CO)cc1	1	5	-5.2
O=C(NCCN1CCCCC1)[C@H]1[C@H](CO)[C@H]2Cn3c(cccc3=O)[C@H]2N1C(=O)C1CC1	-3	0	-2.1

The list is partial; count on the stated rates, not on these rows.
